Screening results: PubChem BioAssay, several laboratories
Env fusion inh: inhibitors of HIV Env-mediated cell fusion; HeLa-JRFL Env/CEM21 cell fusion, luciferase; 1.1% of 360,000 active; inhibition, % at 12.3 µM;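 active = mean replicate inhibition score of at least 50 and every replicate individually at or above 50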;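 note: 0% = plate neutral controls and 100% = maraviroc near 300 nM; one replicate is shown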
Rce1 inh: inhibitors of yeast Ras-converting enzyme; 0.27% of 290,000 active; yeast membranes, quenched prenylated peptide cleavage fluorescence; calls only; Q03530;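 active = fall in fluorescence gain of 50% or more versus controls, with final raw signal at or below 3038400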;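 note: plate controls were neutral control wells for no effect and wells lacking membranes for full effect; tested at 10 µM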
Target sequence (Q03530 whole entry, looked up): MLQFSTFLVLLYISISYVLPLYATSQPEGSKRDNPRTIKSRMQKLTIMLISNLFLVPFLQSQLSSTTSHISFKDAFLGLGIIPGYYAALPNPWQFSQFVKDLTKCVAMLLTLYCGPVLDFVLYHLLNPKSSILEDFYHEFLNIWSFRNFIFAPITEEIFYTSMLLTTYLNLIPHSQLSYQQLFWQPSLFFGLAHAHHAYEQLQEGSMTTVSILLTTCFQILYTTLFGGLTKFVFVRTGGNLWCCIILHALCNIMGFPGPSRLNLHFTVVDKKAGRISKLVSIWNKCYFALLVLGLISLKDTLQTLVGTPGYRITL
eIF4H inh: inhibitors of RNA binding by human eIF4H; 0.94% of 290,000 active; AID 2012; inhibition, % at 35 µM; Q15056; eIF4H fluorescence polarization binding assay;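 active = 50% or more with normal probe brightness, or confirmed in later tests; about a fifth of its hits are not listed in these tables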;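 note: calls also rest on retests at 20 µM and on dose response follow-up; 0% = protein and probe with vehicle and 100% = probe without protein; strong numbers were not always called active; many hits fall short of the cut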
PABP polyA inh: PABP-poly(A) binding inhibition | PABP-poly(A) RNA binding, fluorescence polarization | inhibition, % at 35 µM | 1% of 290,000 active | AID 2014;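 active = 50% or more with normal probe brightness, or confirmed in later tests; about a fifth of its hits are not listed in these tables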;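 note: calls also rest on retests at 20 µM and on dose response follow-up; controls were probe without protein and protein plus probe with vehicle; some compounds called inactive have numbers as strong as hits; many hits fall short of the cut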
Target sequence (P11940 whole entry, looked up): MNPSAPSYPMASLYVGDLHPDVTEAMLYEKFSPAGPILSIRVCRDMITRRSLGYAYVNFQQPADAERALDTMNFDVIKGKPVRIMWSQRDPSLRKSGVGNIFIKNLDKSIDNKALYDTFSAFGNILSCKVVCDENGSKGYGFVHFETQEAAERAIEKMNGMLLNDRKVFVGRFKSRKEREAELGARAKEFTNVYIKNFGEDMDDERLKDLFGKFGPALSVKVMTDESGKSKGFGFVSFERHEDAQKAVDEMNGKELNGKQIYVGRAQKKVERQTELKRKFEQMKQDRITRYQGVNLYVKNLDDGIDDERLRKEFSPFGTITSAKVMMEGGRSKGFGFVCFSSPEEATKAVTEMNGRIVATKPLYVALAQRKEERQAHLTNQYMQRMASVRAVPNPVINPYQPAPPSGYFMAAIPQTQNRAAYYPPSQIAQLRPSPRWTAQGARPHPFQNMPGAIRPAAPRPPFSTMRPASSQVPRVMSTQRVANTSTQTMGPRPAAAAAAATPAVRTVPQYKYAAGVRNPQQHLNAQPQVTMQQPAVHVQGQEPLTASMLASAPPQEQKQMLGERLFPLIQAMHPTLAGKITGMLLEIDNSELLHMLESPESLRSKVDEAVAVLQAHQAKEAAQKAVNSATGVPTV
Yeast UUG start: modulators of start codon recognition fidelity in yeast | activity score, % at 18.7 µM | 0.13% of 350,000 active | S. cerevisiae UUG-firefly luciferase reporter, luminescence/redox ratio | AID 602363;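 active = replicate mean at a twofold rise or more, about +100% in these data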;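 note: firefly luciferase made from a UUG start codon reports start codon fidelity; reporter light over untreated wells divided by growth signal over untreated wells; some hits fall short of that in this replicate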
CSC inhib: cancer stem cell inhibition | cancer stem cell-like cells viability, luminescence | inhibition, % at 7.5 µM | 1.1% of 300,000 active | AID 2717;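 active = mean at 75% or more and at least half the replicates too; tested in HMLE shEcad cells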;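 note: 0% = median of negative and 100% = median of positive control wells; the first replicate is given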
MT1-MMP act inh: inhibitors of human MT1-MMP activation. 0.061% of 360,000 active. P50281. HT1080 RFP-PRO-GFP cells, GFP/RFP ratio fluorescence, overnight; percent of plate control window, DMSO zero. GFP/RFP ratio change, % at 20 µM. AID 651647;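 active = GFP/RFP ratio change of at least 30% with cell ATP level not reduced by more than half and red fluorescence within 50% of control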; note: strong numbers were not always called active
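Compound: 20 µM single dose, 1% DMSO / System: HT1080 RFP-PRO-GFP cells / Controls: DMSO and RFP-L50D-GFP cell wells / Read-out basis: GFP/RFP fluorescence ratio / Schedule: overnight compound exposure at 37 °C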
MT1-MMP act inh RFP: second read-out of MT1-MMP act inh, no call of its own (marks repeat the call); RFP signal change, %; measured here: RFP expression control read;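 0 = vehicle wells; hits needed this value within 50% of zero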
An asterisk follows results filed as active; i = inactive; . = not tested or not shown. Not all compounds are listed; rates above refer to the full screens.

SMILES | Env fusion inh | Rce1 inh | eIF4H inh | PABP polyA inh | Yeast UUG start | CSC inhib | MT1-MMP act inh | MT1-MMP act inh RFP
CCCCN(C(=O)c1ccc(OC)c([N+](=O)[O-])c1)c1c(N)n(CCC)c(=O)[nH]c1=O | 4 | i | -2 | 0 | -12 | 0 | -1 | 3
COc1ccc(NC(=O)CCCc2ccccc2)cc1OC | -1 | i | -4 | 0 | -28 | -7 | 4 | 0
Cc1onc(C(=O)NN)c1C(=O)Nc1ncc(C(F)(F)F)cc1Cl | -9 | i | 27 | -5 | 9 | . | 1 | 4
O=C(NCc1ccco1)c1ccccc1NC(=O)C1CC(=O)N(c2ccc(Cl)cc2)C1 (stereo unspecified) | -31 | i | -12 | -5 | 0 | -7 | 0 | 1
COc1ccccc1CNC(=O)CNC(=O)c1sc2ccccc2c1Cl | -27 | i | -18 | -14 | 4 | 10 | 0 | 7
Cc1nc(NCc2ccco2)c2c(C)c(C)sc2n1 | -4 | i | 6 | 31 | -8 | 98* | -6 | -8
C=CCn1c(SCC(=O)Nc2ccc(N3CCOCC3)cc2)nc2ccccc2c1=O | 8 | i | -6 | 7 | 9 | -9 | -2 | 2
CC(=O)c1ccc(Nc2cnn(C34CC5CC(CC(CC(=O)O)(C5)C3)C4)c(=O)c2Cl)cc1 | 12 | i | 4 | 3 | -4 | -7 | -2 | 1
CCC(C)[C@H](NC(=O)NCc1ccc(OC)c(OC)c1)C(=O)O (stereo partly specified) | 16 | i | -4 | 3 | . | 8 | 2 | 2
CCOC(=O)CNC(=O)Cc1ccc(OC)cc1 | 8 | i | 4 | 0 | . | -13 | 1 | 4
CN(C)/C=C/C(=O)c1ccc(S(=O)(=O)c2ccccc2)cc1 | 10 | i | -12 | -5 | -8 | -6 | -1 | -1
Cc1ccc(C)c(S(=O)(=O)N2CCC(c3nc4c(nnn4Cc4ccc(F)cc4)c(=O)[nH]3)CC2)c1 | . | . | -13 | -10 | 9 | 11 | 2 | 3
COc1ccc(-c2ccc(=O)[nH]n2)cc1 | . | i | -4 | -1 | . | 2 | 2 | 0
CCOc1ccccc1C(=O)Nc1ccccc1O | -108 | i | -7 | -7 | 2 | 0 | 5 | 0
COCCNc1nc(NCCN2CCNC2=O)c2sc(-c3ccccc3)cc2n1 | 7 | . | . | . | -14 | . | 1 | 1
CCCc1ncc(CN2CCCC(C(=O)Nc3ccc(-c4cccc(OC)c4)cc3)C2)cn1 (stereo unspecified) | 15 | i | -8 | 1 | 13 | 11 | 0 | -15
CCCCC(=O)OCC(=O)Nc1ccc(C)c(F)c1 | 4 | i | -5 | -5 | . | -2 | 2 | 8
COc1ccc(NC(=O)C2Cc3c(-c4cccc(C(N)=O)c4)ccnc3O2)cn1 (stereo unspecified) | -12 | . | . | . | 5 | . | 1 | -2
CCN1C(=O)CC(NCc2ccc3c(c2)OCO3)C1=O (stereo unspecified) | 17 | i | 4 | -4 | . | 3 | 2 | 2
Cc1cc(C)nc(N2CCC(CNC(=O)CCc3ccccc3)CC2)n1 | -2 | i | -2 | 15 | 5 | 1 | 2 | 1
C[N+]1(CCOS(=O)C23CC4CC(CC(C4)C2)C3)CCOCC1 (stereo unspecified) | . | i | . | . | -5 | -20 | -6 | -3
CC(=O)c1cccc(NC(=O)C(Sc2ncnc3ccccc23)c2ccccc2)c1 (stereo unspecified) | 10 | i | -6 | -12 | . | -4 | -2 | -2
O=C(CSc1cn(CCNC(=O)c2cccs2)c2ccccc12)NC1CCCC1 | 26 | i | -5 | -4 | 10 | -10 | 5 | -11
CCC(C(=O)NC1CCCCC1)N(C(=O)c1snc(C(N)=O)c1N)c1ccc(OC)cc1OC (stereo unspecified) | 5 | i | -8 | 4 | 11 | . | -2 | -5
Cc1cccc(N(CC(O)CON=C2c3ccccc3-c3ccccc32)S(C)(=O)=O)c1 (stereo unspecified) | 65* | i | 4 | 5 | -13 | 5 | -1 | -10
COc1ccc(C(C(=O)NCC2CCCO2)N(C(=O)Cn2nnc3ccccc32)c2ccc(NC(C)=O)cc2)c(OC)c1 (stereo unspecified) | 0 | i | -8 | -11 | -9 | -10 | 3 | 1
CC1(C)Cc2c(cnn2-c2ccc(F)cc2)C(NC(=O)C(C)(C)O)C1 (stereo unspecified) | -7 | i | -1 | -6 | -4 | -8 | -2 | 4
Cc1ccc(C(=O)C2=C(O)C(=O)N(Cc3cccnc3)C2c2ccc(N(C)C)cc2)o1 (stereo unspecified) | 2 | i | -2 | 14 | -1 | 3 | 0 | -1
COC(=O)CSc1nnc(C2COc3ccccc3O2)n1-c1ccccc1 (stereo unspecified) | . | i | 5 | -2 | -8 | -10 | 5 | -2
COc1ccc(OCc2n[nH]c(=S)o2)cc1 | . | i | -7 | 21 | -17 | . | 1 | 5
COc1cc2c(cc1OC)C(c1ccccc1Br)NC(=O)C2 (stereo unspecified) | 8 | i | -2 | -3 | -4 | -18 | 4 | -3
CCN(CC(=O)NCc1cccs1)CC(=O)Nc1cccc(S(N)(=O)=O)c1 | -2 | . | . | . | 4 | . | 5 | 3
O=C(C[n+]1cn(C(F)F)c2ccccc21)c1ccc(OC(F)F)cc1 | -32 | i | -15 | 6 | . | 35 | 2 | 5
COc1cc(C2C(C(C)=O)=C(O)C(=O)N2c2ccc(C)cc2)ccc1O (stereo unspecified) | . | i | 11 | -1 | -21 | -2 | 2 | 3
Cc1ccc(CONS(=O)(=O)c2cc(C)ccc2C)cc1 | . | . | . | . | 2 | 3 | 0 | 2
CCOC(=O)c1c(C)nc2c(C#N)cnn2c1C | . | i | -1 | -10 | -8 | -6 | 3 | 1
O=C(Cc1ccccc1[N+](=O)[O-])Nc1ccccc1C(=O)N1CCOCC1 | 2 | i | -7 | -7 | . | -1 | -1 | 2
COc1ccc(-c2cc(C(=O)NCC(C)C)no2)cc1 | -174 | i | 2 | -2 | . | . | 4 | -2
CC(C)C(c1nnnn1CC1CCCO1)N1CCN(Cc2ccc3c(c2)OCO3)CC1 (stereo unspecified) | . | i | -6 | 13 | -8 | . | -3 | -1
Cc1csc(N(C(=O)Cc2ccccc2F)c2ccccc2)n1 | . | i | -7 | 2 | . | -4 | 3 | -3

The final 4 compounds of the part before are carried over, then new ones follow:
SMILES | Env fusion inh | Rce1 inh | eIF4H inh | PABP polyA inh | Yeast UUG start | CSC inhib | MT1-MMP act inh | MT1-MMP act inh RFP
O=C(Cc1ccccc1[N+](=O)[O-])Nc1ccccc1C(=O)N1CCOCC1 | 2 | i | -7 | -7 | . | -1 | -1 | 2
COc1ccc(-c2cc(C(=O)NCC(C)C)no2)cc1 | -174 | i | 2 | -2 | . | . | 4 | -2
CC(C)C(c1nnnn1CC1CCCO1)N1CCN(Cc2ccc3c(c2)OCO3)CC1 (stereo unspecified) | . | i | -6 | 13 | -8 | . | -3 | -1
Cc1csc(N(C(=O)Cc2ccccc2F)c2ccccc2)n1 | . | i | -7 | 2 | . | -4 | 3 | -3
CCOc1cccc(NC(=O)/C(C#N)=C\c2cn(CC(=O)O)c3ccccc23)c1 | -18 | i | 3 | 3 | -4 | -1 | -4 | -1
Cc1ccc(CNC(=O)C(=O)NCC2OCCN2S(=O)(=O)c2ccc(Br)cc2)cc1 (stereo unspecified) | 21 | i | -12 | 4 | -14 | 11 | 1 | -20
Cc1ccc(N2CCN(S(=O)(=O)N(C)C)CC2)cc1C | -5 | i | -13 | 1 | . | -7 | 7 | 6
CC(NCC(=O)Nc1ccccc1C(=O)NC1CC1)c1ccccc1Cl (stereo unspecified) | 5 | . | . | . | -6 | . | 2 | -2
Cc1cc(C)cc(OCC(=O)N2CCCCCC2)c1 | 2 | i | 1 | -2 | -12 | -18 | 1 | 0
CCOc1ccc(-c2c(=O)n(OCc3ccc([N+](=O)[O-])cc3)c3ccccc3[n+]2[O-])cc1 | . | i | 2 | 18 | . | -23 | . | .
Cn1c(OCc2cccnc2)nc2c1c(=O)n(Cc1ccc(F)cc1)c(=O)n2C | 9 | i | 4 | -9 | . | -5 | -1 | -5
Cc1ccc(C(=O)N2CCN(c3cc4c(cc3[N+](=O)[O-])n(C)c(=O)n4C)CC2)cc1 | . | i | -5 | -8 | 2 | -7 | 11 | -9
CCC(C)NC(=O)C1CCC(CNS(=O)(=O)c2ccccc2)CC1 (stereo unspecified) | 15 | i | 1 | 2 | 2 | -3 | -2 | 0
Cc1ccc(-c2nnc(Cc3ccc(Cl)cc3)o2)cc1 | -68 | i | -4 | -5 | -13 | 2 | 1 | 1
O=C(O)CCC(=O)N1CCN(S(=O)(=O)c2ccc3ccccc3c2)CC1 | -11 | i | -17 | 1 | 1 | -15 | 4 | 5
COc1ccc(C(c2nnnn2C2CCCC2)N2CCC(C)CC2)cc1 (stereo unspecified) | . | i | -8 | 14 | -2 | -11 | -6 | -7
COc1ccccc1C(=O)NC(CCSC)C(=O)N1CCC(Cc2ccccc2)CC1 (stereo unspecified) | 8 | i | . | . | . | -17 | -5 | -8
CC(=O)c1cnc2c(-c3cccc(Br)c3)cnn2c1C | -67 | i | -15 | 11 | -18 | 18 | 4 | 2
CCCCn1c(N)c(N(CC(C)C)C(=O)c2cc(S(=O)(=O)N3CCCCC3)ccc2C)c(=O)[nH]c1=O | 1 | i | . | . | -19 | 1 | -2 | 2
Cc1nc(N)ncc1C(=O)Nc1ccccc1 | 6 | i | -6 | -6 | -13 | -6 | -1 | 3
O=C(CNC(=S)N(CCCN1CCOCC1)Cc1cccs1)NC1CCCCCCC1 | 21 | i | 6 | -2 | -7 | -9 | 4 | 3
CC1CCC2(CC1)NC(=O)N(CC(=O)Nc1ccc3c(c1)OCCO3)C2=O (stereo unspecified) | -11 | i | 2 | 2 | . | -21 | 2 | -1
COc1ccc(C(=O)N2CCCC(c3nc(-c4ccc(C)o4)no3)C2)cc1OC (stereo unspecified) | 23 | i | -16 | 5 | 6 | -1 | 1 | -1
COCCN(C(=O)CCc1ccc(OC)cc1)c1nnc(-c2ccncc2)s1 | -9 | i | -3 | 3 | . | -2 | -1 | -4

Random excerpt: 2 records from the list, in no set order.
SMILES | Env fusion inh | Rce1 inh | eIF4H inh | PABP polyA inh | Yeast UUG start | CSC inhib | MT1-MMP act inh | MT1-MMP act inh RFP
COc1ccc(C(=O)N2CCCC(c3nc(-c4ccc(C)o4)no3)C2)cc1OC (stereo unspecified) | 23 | i | -16 | 5 | 6 | -1 | 1 | -1
Cc1ccc(-c2nnc(Cc3ccc(Cl)cc3)o2)cc1 | -68 | i | -4 | -5 | -13 | 2 | 1 | 1

Next section.
SMILES | Env fusion inh | Rce1 inh | eIF4H inh | PABP polyA inh | Yeast UUG start | CSC inhib | MT1-MMP act inh | MT1-MMP act inh RFP
CCOC(=O)C1=C(C)N=c2s/c(=C\c3ccc(OCC(=O)O)c(OC)c3)c(=O)n2C1c1ccc(OC)cc1 (stereo unspecified) | 9 | i | -1 | 6 | 6 | 0 | -22 | 2
CCc1ccc(NC(=S)Nc2ccc3cn[nH]c3c2)cc1 | . | i | 20 | 2 | . | -1 | 1 | -1
O=C(Nc1ccccc1)c1cc(S(=O)(=O)N2CCOCC2)cs1 | . | i | -9 | -12 | -16 | 15 | 3 | -3
CCNC(=O)N(CCOC)CC1CCCN(C2Cc3ccccc3C2)C1 (stereo unspecified) | -16 | i | 22 | 4 | -2 | -18 | -1 | 3
Cc1nc2ccccc2c(=O)n1NC(=O)c1ccc([N+](=O)[O-])cc1 | -1 | i | 15 | -4 | . | -12 | 1 | 0
O=C(NCc1cccc(OC(F)(F)F)c1)c1cccc2c1C(=O)c1ccc(-c3ccc(F)cc3OCc3ccccc3)cc1S2(=O)=O | 25 | . | . | . | -14 | . | 3 | -1
O=C(COC(=O)/C=C/c1cccc(F)c1)NC1CCCCCC1 | 20 | . | . | . | -22 | 0 | -3 | 0
Cc1ccc(NC(=O)/C(Cl)=C/c2ccccc2)cc1C | -27 | i | -7 | -6 | -50 | 16 | 1 | -2
